# Screening results (PubChem BioAssay)
# TAR Tat displ: HIV-1 TAR-Tat binding disruption. HIV-1 TAR RNA, Tat peptide displacement FRET; active compounds read high. z-score (concentration not given with the values). 100,000 tested, 0.6% active;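 also: score is relative to mean and SD of negative controls; some compounds called inactive have numbers as strong as hits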
# CDC25B-CDK2 inh: human CDC25B-CDK2/CyclinA binding inhibition. P30305+P24941. HTRF CDC25B-CDK2/CyclinA binding, anti-His/anti-Flag; active compounds read high. z-score (test concentration not listed). 94,000 tested, 0.72% active;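 also: score is relative to mean and SD of negative controls; strong numbers were not always called active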
# * hit, by the source's call; x = not tested or not shown.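 The calls were made as follows: active = z-score from 3 up in half or more of its runs; inactive = the rest.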
SMILES,TAR Tat displ,CDC25B-CDK2 inh
CC1CCCN(c2nn3c(=O)c(C(=O)NCCC4=CCCCC4)cnc3s2)C1 (stereo not drawn),0.42,x
Cc1ccc(-c2csc3ncn4nnnc4c23)cc1,x,-0.36
CCSc1ncc(Cl)c(C(=O)Nc2nnc(CC(C)C)s2)n1,-0.3,-0.69
Cc1ccc(C)c(N2CCN(CC(O)Cn3nnnc3-c3ccccc3)CC2)c1 (stereo not drawn),1.27,-2.18
Fc1ccc(Cn2c(CN3CCOCC3)nc3ccccc32)cc1,-1.03,-1.58
CCOc1ccc(N2C(=O)C3ON(c4ccccc4)C(c4ccccc4O)C3C2=O)cc1 (stereo not drawn),0.51,-1.57
O=C1NC(c2ccccc2F)c2c1n[nH]c2-c1ccco1 (stereo not drawn),-4.49,5.31
CCCCCCCNC(=O)c1c[nH]c2ccc(S(=O)(=O)N3CCOCC3)cc2c1=O,0.71,-1.49
COc1ccc(NCC(O)Cn2nnnc2-c2ccccc2)cc1OC (stereo not drawn),-2.12,-0.76
O=C(CC1SC(=O)NC1=O)Nc1ccc(NC(=O)CC2SC(=O)NC2=O)cc1 (stereo not drawn),x,-0.57
Cc1cc(C)cc(NC(=O)CSc2nc(-c3ccc(Cl)cc3)nc3cc(=O)[nH]n23)c1,22.9*,x
CCCS(=O)(=O)N1CCN(Cc2ccco2)CC1,1.26,-0.7
COC(=O)c1c(C)oc2cc(Br)c(OC(=O)C(C)C)cc12,x,-1.09
S=C(NNc1nccc(-c2cccnc2)n1)Nc1ccccc1,x,-2.32
FC(F)(F)c1nc2ccncc2[nH]1,0.68,x
COCCn1c(SCC(=O)N2CCCCC2)nc2c(c1=O)SC(C)C2 (stereo not drawn),x,-0.95
Cc1nc2cc(S(=O)(=O)N3CCC(C(=O)NC4CCCCC4C)CC3)ccc2n1C1CCCC1 (stereo not drawn),1.58,0.71
O=C(CSc1c(F)c(F)c(F)c(F)c1F)Nc1ccc(C2SCCS2)cc1,x,0.6
CCC(C)(C)NC(=O)c1cc(S(=O)(=O)N2CCOCC2)cn1C,1.49,x
O=C(Nc1cc(F)ccc1F)N1CCSc2ccccc21,1.61,x
Cc1ccc2c(c1)-c1ncc(C(=O)c3ccccc3O)cc1CO2,1.18,-0.48
CC(C)c1nn2c(=O)cc(COC(=O)CNC(=O)c3ccc(C(C)(C)C)cc3)nc2s1,2.3,x
COc1cc(CNCc2ccc(SC)cc2)cc(OC)c1,0.67,-1.24
CCOC(=O)C1=C(C)Nc2ncnn2C1c1ccc(OC)c(O)c1 (stereo not drawn),-0.23,-0.78
O=C(Nc1ccc(S(=O)(=O)Nc2ncccn2)cc1)c1cc2ccccc2o1,-1.13,-0.04

# Continued (three carried over from the part before).
SMILES,TAR Tat displ,CDC25B-CDK2 inh
COc1cc(CNCc2ccc(SC)cc2)cc(OC)c1,0.67,-1.24
CCOC(=O)C1=C(C)Nc2ncnn2C1c1ccc(OC)c(O)c1 (stereo not drawn),-0.23,-0.78
O=C(Nc1ccc(S(=O)(=O)Nc2ncccn2)cc1)c1cc2ccccc2o1,-1.13,-0.04
O=C(CN1C(=O)c2ccccc2C1=O)Oc1ccc(F)cc1,x,-0.81
O=C(O)Cn1c(SCc2ccccc2)nc2ccccc21,0.08,-0.75
COCCCNc1nc2ccccc2n2cnnc12,x,-0.61
CC(=O)Oc1cc(C)c2c(c1C(OC(C)=O)OC(C)=O)Oc1c(c(C)c(OC(C)=O)c3c1C(OC(C)=O)OC3=O)OC2=O (stereo not drawn),1.85,x
CC(C)CC(=O)Nc1ccc2nc(SCC(=O)N3CCc4ccccc43)sc2c1,1.9,1.19
COc1ccc(C2C(C#N)=C(C)NC3=C2C(=O)CCC3)cc1OC (stereo not drawn),0.34,-0.6
Fc1ccc(-c2nsc3c(N4CCCC4)ncnc23)cc1,0.29,-1.99
CSC1=NCCN1C(=O)C1c2ccccc2Oc2ccccc21,x,-1.25
O=C(c1nc2ccccc2s1)N1CCSCC1,x,-0.82
O=c1c2ccccc2nc2n1CCN2CCOc1ccc(Cl)cc1,2.05,0.16
CCS(=O)(=O)c1oc(-c2ccc(F)cc2)nc1S(=O)(=O)c1ccc(F)cc1,0.07,-4.07
O=C(Nc1ccc(Br)cc1F)N1CC2CCCN2c2ccccc21 (stereo not drawn),-7.98,x
COc1cc(C(=O)Nc2cccc(O)c2)c2ccccc2n1,x,0.53
COc1ccc2cc(C(=O)Nc3ccc(Cl)cc3)sc(=O)c2c1OC,6.36*,0.18
CCc1ccc(N2CCn3c2nc2c3c(=O)n(CC(=O)O)c(=O)n2C)cc1,3.43,-3.91
O=C(Nc1ccc(Br)cn1)c1cc2n(n1)C(C(F)(F)F)CC(c1ccccc1)N2 (stereo not drawn),0.96,-1.43
COc1ccc(OCCn2cc(C(=O)C3CC3)c3ccccc32)cc1,1.7,-1.9
Cn1cc(C2CC(=O)N(c3ccc(Br)cc3)C2=O)c2ccccc21 (stereo not drawn),2.14,0.09
O=S(=O)(NC1=NCCCN1)c1cc(C(F)(F)F)cc(C(F)(F)F)c1,x,-0.8
O=C1CN(/N=C/c2ccc([N+](=O)[O-])o2)C(=O)N1,-3.19,x
Cn1nnnc1NCc1ccc(-c2ccc(Br)cc2)o1,0.67,x
Nc1cc(-c2cccc(F)c2)nn1S(=O)(=O)c1ccccc1,0.56,-0.5
COC(=O)C1C(=O)C2=C(CC1C)NC(=O)CC2c1cc(Br)c(O)c(OC)c1 (stereo not drawn),1.51,-1.12
FC(F)(F)c1cnc(NCCNc2nccc(C(F)(F)F)n2)c(Cl)c1,x,-1.47
Cc1nc(-c2nnc(NC(=O)Nc3ccc(Cl)cc3)o2)c(C)s1,1.41,-2.36

# Filtered by structure, those above containing a COOH group (two)
SMILES,TAR Tat displ,CDC25B-CDK2 inh
O=C(O)Cn1c(SCc2ccccc2)nc2ccccc21,0.08,-0.75
CCc1ccc(N2CCn3c2nc2c3c(=O)n(CC(=O)O)c(=O)n2C)cc1,3.43,-3.91

# New compounds follow.
SMILES,TAR Tat displ,CDC25B-CDK2 inh
c1ccc(CSc2nccc(-c3ccco3)n2)cc1,x,-1.81
Cc1ccsc1CCNC(=O)c1cnc(N2CCCC2)nc1C,1.43,x
Cc1ccc(N(C)S(=O)(=O)c2ccc(-c3coc(C)n3)cc2)cc1,0.16,x
CCC(Sc1nc2ccncc2[nH]1)C(=O)Nc1c(C)cc(C)cc1C (stereo not drawn),-0.58,-1.78
COC(=O)C1=C(Nc2ccccc2NC(=O)c2c(Cl)cccc2Cl)CSC1,x,-0.52
CC(C)c1ccc(C2C(C(=O)c3ccco3)=C(O)C(=O)N2CCCN2CCOCC2)cc1 (stereo not drawn),-0.35,0.12
CCOc1ccc(OCC)c(NS(=O)(=O)c2ccc3c(c2)NC(=O)CO3)c1,1.38,x
COc1cc(C2CC(=O)Nc3cc4c(cc32)OCO4)c(OC)cc1C(C)C (stereo not drawn),x,0.05
O=C(c1ccccc1I)c1c[nH]c2ccccc12,x,-0.44
Cc1ccc(C(=O)N2N=C(c3ccc(Br)cc3)CC2(O)C(F)(F)F)o1 (stereo not drawn),x,-2.92
Cc1ccc(Nc2nc(N)nc(COc3cccc4cccnc34)n2)cc1,-2.03,-0.49
Cc1ccc(Nc2nc(N)nc(CN3CCC(C)CC3)n2)c(C)c1,2.71,-0.85
CC1Cc2ccccc2N1C(=O)c1ccc(N2C(=O)C(C)(C)CS2(=O)=O)cc1 (stereo not drawn),0.34,-1.5
Cc1nc(-c2ccc(S(=O)(=O)Nc3cccc(Br)c3)cc2)co1,0.8,x
CCc1ccc(S(=O)(=O)NCCc2cn3ccsc3n2)s1,-1.17,x
O=[N+]([O-])c1cc(Cl)ccc1N=Nc1cc(F)cc(F)c1O,x,-0.72
Cc1ccc(C(=O)N2N=C(c3ccccc3)CC2(O)C(F)(F)F)o1 (stereo not drawn),x,-1.49
O=C1CSc2ccc(S(=O)(=O)N3CCCC3)cc2N1CC(=O)N1CCCC2CCCCC21 (stereo not drawn),0.6,x
CCOC(=O)c1cc(NC(=O)N(CC(C)C)CC(C)C)c(C)nc1C,-0.27,0.36
O=C(NCC1CCCO1)c1ccc2c(c1)CCN2S(=O)(=O)c1ccc(Cl)cc1 (stereo not drawn),1.32,-0.94
C=CCn1c(SCC(=O)Nc2ccc(N3CCOCC3)cc2)nnc1-c1cc2ccccc2o1,1.94,x
Cc1cc(C)n(-c2nnc(Nc3ccc(F)cc3)c3ccccc23)n1,0.73,0.18
CC(=O)N1N=C(c2ccc(C)cc2)OC1c1ccc([N+](=O)[O-])s1 (stereo not drawn),x,-0.31
Cc1ccc(C2CC(C(F)(F)F)n3ncc(C(=O)N(C)Cc4c(C)nn(C)c4C)c3N2)cc1 (stereo not drawn),2.52,-1.08
Cc1cc(=O)nc2c3ccccc3n(CC(=O)NCCCN(C)C3CCCCC3)n12,0.64,-1.73
# New compounds follow
SMILES,TAR Tat displ,CDC25B-CDK2 inh
CCOc1ccc2nc(N3CCC(C(=O)N4CCC(N5CCCCC5)CC4)CC3)sc2c1,-0.08,-2.37
Cc1ccccc1S(=O)(=O)N1CCN(c2nc3cc(Br)ccc3n3cccc23)CC1,0.15,-1.56
O=c1cc(CSc2n[nH]c(=O)n2-c2ccc3c(c2)OCCO3)c2ccc(O)cc2o1,x,0.35
C(=C\c1ccccc1)/CNCCSc1nnnn1-c1ccccc1,-2.1,-2.11
N[C@@H](Cc1cc(I)c(Oc2cc(I)c(O)c(I)c2)c(I)c1)C(=O)O,1.04,x
COc1ccc(-c2noc(CCCn3c(=O)[nH]c4cc5c(cc4c3=O)OCO5)n2)cc1,1.42,x
O=C(CSc1nc2ccsc2c(=O)n1-c1ccc(Br)cc1)NC1CCCC1,2,-12.1
O=C(C1=C(NCc2ccco2)c2ccccc2S1(=O)=O)N1CCOCC1,1.49,x
CCCn1c(C2CC(=O)N(C)C2)nc2ccccc21 (stereo not drawn),-0.48,-0.14
Cc1ccccc1NC(=O)N1c2ccccc2NC2=C(C(=O)CC(C)(C)C2)C1c1ccco1 (stereo not drawn),-0.17,x
Cc1oc2ncnc(N3CCCCC3)c2c1C(=O)NCc1cccs1,-0.66,x
CC1Sc2ccc(S(=O)(=O)CCC(=O)Nc3ccccn3)cc2NC1=O (stereo not drawn),4.06,x
O=C(NCc1cccn1Cc1ccc(Cl)cc1)NC1CCCC1,-0.02,x
CCSc1nc(N)cc(=O)[nH]1,x,-1.68
O=S(=O)(c1ccc(-c2cnc(C3CC3)o2)cc1)N1CCOCC1,1.46,x
O=C(Cn1cnc(S(=O)(=O)N2CCCCC2)c1)NCc1cccs1,0.21,x
O=C(Nc1ccc(Cl)cc1)N1CCc2nc(N3CCCCC3)ncc2C1,1.35,x
Cn1c(=O)c2cc(S(=O)(=O)Nc3cc(C(=O)O)cc(C(=O)O)c3)ccc2n(C)c1=O,x,-1.11
Cc1cc(CN2CCc3ccccc3C2)cs1,2.15,x
Cc1ccc2c(=O)c(CN3CCN(C)CC3)c(C)[nH]c2c1C,0.6,-0.25
COc1ccccc1NCc1nc2sc3c(c2c(=O)[nH]1)CCCC3,-2.94,-1.13
Cc1ccc(NS(=O)(=O)c2cc(-c3csc(C)n3)ccc2C)cc1,1.29,x
CS(=O)(=NC(=S)NC(=O)Oc1ccccc1)c1ccc(Cl)cc1 (stereo not drawn),x,-1.65
COc1ccc(CCc2nc(-c3ccc(OC)c(OC)c3)no2)cc1,1.77,-1.94
Clc1cccc(Nc2nc3nonc3n3nnnc23)c1,x,-1.35

# Some of these compounds in order of number of heavy atoms, smallest number first.
SMILES,TAR Tat displ,CDC25B-CDK2 inh
CS(=O)(=NC(=S)NC(=O)Oc1ccccc1)c1ccc(Cl)cc1 (stereo not drawn),x,-1.65
O=C(C1=C(NCc2ccco2)c2ccccc2S1(=O)=O)N1CCOCC1,1.49,x
COc1ccc(-c2noc(CCCn3c(=O)[nH]c4cc5c(cc4c3=O)OCO5)n2)cc1,1.42,x

# The results go on.
SMILES,TAR Tat displ,CDC25B-CDK2 inh
O=C(C1CCCN(c2nn3c(=O)c4c(nc3s2)CCCC4)C1)N1CCN(c2ccccc2F)CC1 (stereo not drawn),1.11,x
Cc1nc(-c2ccncc2)ncc1-c1nsc(Nc2ccccc2)n1,x,-1.23
CCOc1ccc(C2c3c(-c4cc(C)ccc4O)n[nH]c3C(=O)N2Cc2ccco2)cc1 (stereo not drawn),2.19,0.95
O=C(O)c1cc(Nc2ccccc2)nc2ccccc12,0.77,x
CC(C)CC(NS(=O)(=O)c1ccc2c(c1)oc(=O)n2C)C(=O)N1CCC(C)CC1 (stereo not drawn),-0.67,-0.11
Cc1c(C)n(Cc2ccc(Cl)cc2)c2ccc(C(=O)O)cc12,-2.38,-9
Nc1nc(-c2ccc(Cl)cc2)nn1S(=O)(=O)c1ccc2ccccc2c1,-0.16,-0.39
CC1=NN(c2nc(C)cc(C)n2)C(=O)C1CCC(C)C (stereo not drawn),1.14,-0.84
NNC(=S)Nc1ccc(OCc2ccccc2)cc1,x,-0.85
Cc1csc2nc(CSc3nc4ccc(NC(=O)C(C)(C)C)cc4s3)cc(=O)n12,1.41,x
CSc1cccc(NS(=O)(=O)c2cn(C)cn2)c1,0.16,x
O=C(CCc1nnc2ccc(N3CCOCC3)nn12)N1CCC(Cc2ccccc2)CC1,0.48,x
CN(C)CCn1c(=O)n(C)c(=O)c2[nH]cnc21,1.12,-1.63
Cc1ccc(SCCCC(=O)Nc2sc3c(c2C(N)=O)CCC3)cc1,0.17,x
CCOc1ccc(-c2nc(C#N)c(NCC(C)C)o2)cc1,3.91,0.03
CCS(=O)(=O)Nc1cccc(-c2ccc(OC)nn2)c1,0.7,x
Cc1nc(SCC(=O)Nc2cccc3nsnc23)oc1C,0.86,2.28

# Profiles from above. Order of values: TAR Tat displ	CDC25B-CDK2 inh
# COc1ccc(-c2noc(CCCn3c(=O)[nH]c4cc5c(cc4c3=O)OCO5)n2)cc1 in the list: 1.42	x
# N[C@@H](Cc1cc(I)c(Oc2cc(I)c(O)c(I)c2)c(I)c1)C(=O)O in the list: 1.04	x
# Cc1ccsc1CCNC(=O)c1cnc(N2CCCC2)nc1C in the list: 1.43	x
# Cc1ccc(-c2csc3ncn4nnnc4c23)cc1 in the list: x	-0.36
